Assay outcomes as filed in PubChem BioAssay.
GALR2 agonist: activates the human galanin receptor 2; activation, %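 (tested at 5 µM)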; GALR2-expressing cells, agonist activation read-out; actives 0.48% (n = 140,000); O43603; AID 803;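 active means above mean plus 3 SD of all compounds, about 5% in these data, not always enough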;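 further: 0% = vehicle buffer wells and 100% = reference agonist at full effect; tested in CHO reporter cells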
Target sequence (O43603 whole entry, looked up): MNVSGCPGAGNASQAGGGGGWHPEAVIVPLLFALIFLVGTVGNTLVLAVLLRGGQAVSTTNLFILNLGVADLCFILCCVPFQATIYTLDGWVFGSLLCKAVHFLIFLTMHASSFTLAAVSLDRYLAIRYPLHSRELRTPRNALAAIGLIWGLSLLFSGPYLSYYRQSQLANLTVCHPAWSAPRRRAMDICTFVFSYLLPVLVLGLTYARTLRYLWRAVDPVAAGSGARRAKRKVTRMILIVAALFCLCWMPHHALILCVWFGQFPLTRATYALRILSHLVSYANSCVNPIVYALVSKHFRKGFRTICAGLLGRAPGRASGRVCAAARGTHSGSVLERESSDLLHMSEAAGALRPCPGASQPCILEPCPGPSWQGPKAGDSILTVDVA
PKD1 inh: PKD1 (human) kinase inhibition; Q15139; PKD1 kinase fluorescence polarization assay; inhibition, %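 (about 10 µM by stock and volumes)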; actives 0.056% (n = 200,000);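 active means inhibition of 50% or more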;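 further: controls were vehicle for no effect and a reference inhibitor for full effect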
HSV augment: HSV replication enhancement; HSV replication augmentation in cells, fold increase; maximum fold increase; actives 0.005% (n = 220,000); AID 1956;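 active means peak rise of 1.5-fold or more in the series; inconclusive means self-fluorescent or not available for retest; tested in PC3 cells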;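 further: first round at 10 µM; read as green reporter fluorescence; hits show the peak of a series up to 25 µM; 1 = signal of infected wells without compound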
Insulin prom inh: TRM-6 insulin promoter activity inhibition; TRM-6 cells (human fetal islet line), insulin promoter-eGFP reporter, imaging; reporter expression induced with tamoxifen; inhibition, % at 2 µM; actives 0.9% (n = 130,000);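 active means inhibition above the mean plus 3 SD, with well images judged a real hit on visual review, cut at about 60% in these data, passing the limit was not always enough; inconclusive means inhibition over the cutoff but images rejected on review; inactive means inhibition not above the cutoff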
RGS16-Gao: regulators of human RGS16-Galphao interaction. O15492+P09471. bead-based flow cytometry RGS16-Galphao binding, fluorescence; actives lie on both sides. binding response (% of control), % at 10 µM. actives 0.38% (n = 220,000);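 active means below 25% or above 175%, edge rows of some plates excepted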;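 further: Galphao activated by GDP with aluminum fluoride before binding; 100% = wells without compound and 0% = beads without RGS; some results beyond the cut were filed as inactive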
Target sequence (O15492 whole entry, looked up): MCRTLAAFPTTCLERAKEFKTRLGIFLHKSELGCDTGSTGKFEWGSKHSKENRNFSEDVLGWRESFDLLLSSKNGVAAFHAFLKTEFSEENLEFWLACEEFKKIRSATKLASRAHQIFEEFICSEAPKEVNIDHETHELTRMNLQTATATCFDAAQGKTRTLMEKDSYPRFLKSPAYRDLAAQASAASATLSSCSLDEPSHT
Target sequence (P09471 whole entry, looked up): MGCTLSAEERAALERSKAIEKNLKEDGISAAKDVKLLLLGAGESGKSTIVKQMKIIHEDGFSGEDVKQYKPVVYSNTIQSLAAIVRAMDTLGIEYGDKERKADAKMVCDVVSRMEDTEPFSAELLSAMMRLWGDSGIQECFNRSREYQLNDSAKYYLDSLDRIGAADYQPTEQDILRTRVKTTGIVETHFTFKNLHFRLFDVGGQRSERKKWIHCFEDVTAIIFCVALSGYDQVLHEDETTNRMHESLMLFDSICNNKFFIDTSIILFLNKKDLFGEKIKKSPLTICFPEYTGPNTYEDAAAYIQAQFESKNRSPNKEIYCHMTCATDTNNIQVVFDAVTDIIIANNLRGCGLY
Insulin prom inh cell count: further read-out of Insulin prom inh, marked with its call; normalized cell count, %; measured here: cell count, toxicity; reference of the scale not given here;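 cells exposed to compound for 48 h; stained nuclei by imaging scaled within each plate; lower means fewer cells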
HSV augment primary fold: also measured in HSV augment; calls as there; fold increase; compound at 10 µM; measured here: primary screen fold increase 10 uM; tested in PC3 cells;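 GFP signal in the first replicate; 1 = infected wells without compound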
Active calls of the source: *; i = inactive; ? = inconclusive; nt = no result given. An unsorted share of the library; 1.3% or so of the library scored in one or more.

SMILES	GALR2 agonist	PKD1 inh	HSV augment	HSV augment primary fold	Insulin prom inh	Insulin prom inh cell count	RGS16-Gao
O=C(CSCc1ccco1)c1cccs1	-1.5	1.6	i	0.93	8.7	121.4	93.8
COc1cccc(Nc2ncc(C(=O)O)c3ccccc23)c1	-0.8	-7.9	i	0.92	nt	nt	99.7
CCOC(=O)C(Cc1ccccc1)NC(C)=O (centres undefined)	0.4	2.8	i	1.04	-386.7	80.2	103.1
CN1CCN(CCCC(=O)c2ccc(F)cc2)CC1	-2.1	-11.9	i	0.88	50.0	78.3	72.4
CCOc1ccccc1CNC(=O)C1CCN(c2nc3ccccc3o2)CC1	-3.7	-5.3	nt	nt	nt	nt	105.2
CCOC(=O)CCNC(=O)N1CCCC(C(=O)c2cccc(Cl)c2)C1 (centres undefined)	nt	3.1	i	1	nt	nt	96.9
Cc1ccc(S(=O)(=O)NCCSC(C)(C)C)cc1	-1.4	-13.6	i	0.88	-16.7	77.9	110.2
CCO/C=C/C(O)(CNC(=O)COc1ccccc1F)C(F)(F)F (centres undefined)	-2.3	-6.2	i	0.97	-41.9	117.8	112.0
O=C(c1n[nH]c(=O)c2ccccc12)N1CCN(c2ccccc2)CC1	0.1	-6.5	i	0.997	-41.2	84.8	107.5
Cc1ccc(N(C(=O)C(F)(F)F)C(C(=O)NC2CCCCC2)c2cccs2)cc1 (centres undefined)	-1.9	-3.6	i	0.96	-3.6	110.4	107.1
CC(C)n1cc(NC(=O)c2cc(-c3ccccc3)on2)cn1	0.8	-8.5	i	0.73	12.5	30.5	97.4
CCCCCN1CC(O)=C(c2ccccc2)C1=N	-2.5	-3.5	nt	nt	nt	nt	116.4
O=C(O)/C=C/C(=O)N1CCc2ccccc21	nt	5.3	i	0.96	nt	nt	103.1
Clc1ccc(OCc2cn3ccccc3n2)c2ncccc12	nt	-4.1	i	1	nt	nt	103.2
Cc1nc2ccccc2n1CC(O)Cn1c(C(F)(F)F)nc2ccccc21 (centres undefined)	-1.4	0.4	i	0.93	-25.0	123.7	-15.7*
CCn1c(SCC(=O)Nc2cc(C(C)(C)C)nn2-c2ccccc2)nnc1-c1cccs1	0.2	-3.4	i	0.93	-2.0	75.4	91.3
C=CCSc1nnc(C)c(/C=C/Nc2ccc(Cl)cc2)n1	nt	-3.6	?	nt	nt	nt	103.4
CCOc1ccc(C(=O)OCCN(C)C)cc1	-0.7	-10.2	i	0.91	-75.0	29.2	97.8
CCCC(CCC(=O)Nc1ccc(C(=O)OC)cc1)C(=O)O (centres undefined)	-4.8	-4.3	i	0.89	53.3	108.3	102.6
Cc1cccc(NC(=S)N(Cc2ccc(Br)cc2)Cc2ccc(C(=O)O)cc2)c1	nt	-2.2	i	0.98	nt	nt	104.3

3 compounds from above, arranged by their value in PKD1 inh, highest first.
| Molecule | GALR2 agonist | PKD1 inh | HSV augment | HSV augment primary fold | RGS16-Gao |
| --- | --- | --- | --- | --- | --- |
| O=C(O)/C=C/C(=O)N1CCc2ccccc21 | nt | 5.3 | i | 0.96 | 103.1 |
| CCOC(=O)C(Cc1ccccc1)NC(C)=O (centres undefined) | 0.4 | 2.8 | i | 1.04 | 103.1 |
| O=C(CSCc1ccco1)c1cccs1 | -1.5 | 1.6 | i | 0.93 | 93.8 |

(listing goes on)
SMILES	GALR2 agonist	PKD1 inh	HSV augment	HSV augment primary fold	Insulin prom inh	Insulin prom inh cell count	RGS16-Gao
O=C(NN=C1CCCCCC1)c1cn(-c2ccccc2)nc1-c1ccccc1	-2.9	3.9	i	0.72	33.3	122.8	111.2
COc1ccc(C[C@H]2CN3C(=NC[C@H]3Cc3ccccc3)N2CCNC(=O)CCC2CCCCC2)cc1	nt	9.1	i	0.8	nt	nt	99.9
CCNc1nc(NC(C)C)nc(Oc2ccc(/C=N/O)cc2)n1	0.9	-4.4	i	0.967	30.0	76.6	101.4
O=C(CSc1nc2c(cnn2-c2ccc(F)cc2)c(=O)[nH]1)N1N=C(c2cccs2)CC1c1ccc(F)cc1 (centres undefined)	-1.5	-0.7	i	0.85	30.0	76.4	83.3
O=C(OCC(=O)N1CCOCC1)c1ccc(N2CCOCC2)c([N+](=O)[O-])c1	nt	2.5	i	1.02	nt	nt	104.7
O=C(CCc1ccccc1)NCc1ccccc1	nt	-4.4	i	0.92	nt	nt	104.5
O=C(NCc1ccccc1)N[C@@H](Cc1c[nH]c2ccccc12)C(=O)O	0.7	1.6	i	0.73	75.0*	78.9*	101.2
C/C(=N\NC(=O)c1nn(C)cc1Br)c1ccc(NC(=O)c2ccncc2)cc1	-1.3	-9.6	i	0.99	-22.2	90.8	103.6
COc1ccccc1NC(=O)c1ccc(NC(=O)COC(=O)C2(C)CC2(Cl)Cl)cc1 (centres undefined)	-1.1	-3.6	i	0.85	28.6	128.6	107.1
O=C(/C=C/c1ccc2c(c1)OCO2)Nc1nc2ccccc2s1	3.5	-1.5	i	1	nt	nt	66.9
C/C(=N\NC(=O)C1(C)CC1(Br)Br)c1ccc(NC(=O)C2CCC2)cc1 (centres undefined)	-1.6	4.4	i	0.78	-25.0	92.3	105.2
CCOCCn1c(CN(Cc2ccccc2)Cc2ccccc2)nc2c1c(=O)[nH]c(=O)n2C	0.4	-6.5	i	0.93	18.2	74.5	96.6
CCCCOc1nc(N2CCOCC2)nc(C)c1[N+](=O)[O-]	nt	nt	i	1.21	nt	nt	103.9
O=C1C2C3C=CC(C3)C2C(=O)N1c1ccc2c(c1)OCO2 (centres undefined)	-1.3	13.4	i	0.86	nt	nt	97.8
C[C@@H](C(=O)Nc1ccc2ccccc2c1)[C@H]1C[C@]1(C)[C@H](NS(=O)(=O)c1ccc(-c2ccccc2)cc1)c1ccccc1	-1.9	-3.3	i	0.78	-13.6	107.3	73.9
COc1ccc(C(=O)N2CCC(O)(c3ccc(F)cc3)CC2)cc1OC	97.7*	-4.5	i	1.05	nt	nt	99.0
O=C(O)/C=C/C(=O)NCCC(c1ccccc1)c1ccccc1	nt	nt	i	0.93	nt	nt	98.4
COc1cc(-n2ccnc2SC)c(Cl)cc1Cl	-0.5	-2.9	i	0.81	21.4	141.3	102.1
Cc1cc(NCCCN2CCOCC2)n2nc(C)c(-c3ccccc3)c2n1	0.3	-29.0	i	0.88	26.7	116.6	100.1
COC(=O)c1ccccc1NC(=O)NCC1CCCO1 (centres undefined)	-0.9	-4.4	i	0.72	57.1	124.9	169.6
CC(C)(C)OC(=O)N/N=C/c1ccc(N2CCOCC2)s1	-0.4	3.9	i	1.18	-6.5	90.6	99.7
COc1cccc(NC(=O)Nc2nnc(CC(=O)NCc3ccccc3)s2)c1	nt	nt	i	0.89	nt	nt	96.7
O=C(CCCCCn1c(=S)[nH]c2ccc(N3CCOCC3)cc2c1=O)NCCc1ccccc1	2.6	-4.2	i	0.95	nt	nt	127.1
Cc1ncc(CSc2nnnn2-c2ccccc2)c(N)n1	-1.4	8.0	i	1.06	-218.8	64.9	94.1
O=C(c1ccccc1)N1CCCCC(S(=O)(=O)c2ccccc2)C1=O (centres undefined)	-2.0	26.2	i	0.95	nt	nt	106.3
NC(=O)Nc1ccc(C(=O)OCC(=O)NC2CCCCC2)cc1	nt	3.4	nt	nt	-14.3	196.6	102.7
O=C(CSc1nnc(-c2cccs2)n1-c1ccccc1)NCc1ccco1	-4.7	-1.7	i	1.02	-24.2	69.0	100.5
O=C(/C=C/c1ccc(F)cc1)NC(=S)NNC(=O)c1cccnc1	-0.7	-1.4	i	0.89	36.8	133.5	98.3
CC(=O)C1=C(C)NC(=O)CC1c1ccccc1Cl (centres undefined)	nt	-4.7	i	0.94	44.4	91.3	102.7
CCC(=O)c1ccccc1OCCCN1C(=O)NC(C)(C)C1=O	-1.6	-2.5	i	1.04	9.6	98.3	101.5
Clc1ccc(Sc2cc(Cl)c(-c3ccccc3)nn2)cc1	0.2	13.6	i	1.16	-22.0	37.3	101.1
Cc1ccccc1CN1CCN(CC(=O)NCc2ccco2)C1=O	-2.8	-3.1	i	0.91	10.0	144.7	84.2
COc1ccc(CN(Cc2cccn2C)S(=O)(=O)c2ccc(F)cc2)cc1	nt	nt	i	1.5	nt	nt	99.6
Cc1ccc2c(CC(=O)NCCc3ccc(S(N)(=O)=O)cc3)coc2c1	nt	nt	i	0.86	nt	nt	104.8
O=C(Nc1nccs1)C12CC3CC(C1)CC(C(=O)Nc1nccs1)(C3)C2	-0.1	-7.5	i	0.91	nt	nt	100.4
CCN(CC)S(=O)(=O)c1cccc(-c2nnc(C(=O)c3ccc(C(F)(F)F)cc3)o2)c1	-1.5	3.9	i	0.75	21.2	129.0	97.1
CCCCOC(=O)c1ccc(NC(=O)C(CCS(C)(=O)=O)NC(C)=O)cc1 (centres undefined)	-0.4	-0.7	i	1.04	-81.8	134.7	108.0
COCc1cc(C)nc(N2CCCCC2)c1C#N	-0.9	-6.0	i	1.08	47.6	107.9	102.4
Cc1ccc2c(c1)C1CN(C)CCC1N2C(=S)Nc1ccc(Cl)cc1Cl (centres undefined)	nt	-4.1	i	0.8	nt	nt	100.2
COc1ccccc1NC(=O)Cn1cnc2c1c(=O)n(C)c(=O)n2C	-0.2	-2.1	i	0.9	0.0	126.5	90.7
N#Cc1c(C#N)c(O)c2ccccc2c1O	nt	nt	i	1.09	nt	nt	93.6
Cc1cc(C)cc(NC(=S)NCC2CCN(C(C)c3ccccc3)C2)c1 (centres undefined)	nt	-0.5	i	0.75	nt	nt	104.4
CCn1c(CC(=O)Nc2ccc(Cl)c(Cl)c2)nnc1SCc1ccc(Cl)cc1	-3.0	5.4	i	1.06	nt	nt	148.1
CCC(=O)Nc1ccc(/C=C(\C(C)=O)C(=O)c2ccccc2)cc1	nt	nt	i	0.73	nt	nt	99.1
C=CCn1c(SCC(=O)c2cc(C)n(CC3CCCO3)c2C)nnc1-c1ccccc1 (centres undefined)	-1.9	-30.9	i	1.01	0.0	81.8	118.4
CN1CCN(CCC(=O)N2c3ccccc3Sc3ccc(Cl)cc32)CC1	0.2	6.2	i	0.76	42.9	130.5	124.2
O=c1[nH]c(-c2cccs2)nc2ccccc12	-1.6	5.3	i	0.923	nt	nt	103.4
Cc1nc(C(F)(F)F)c(C(=O)N=CN(C)C)s1	nt	-9.1	i	0.86	28.6	111.5	93.6
CCOC(=O)C1=C(C)Nc2ccccc2N=C1N	nt	1.1	i	1.05	42.1	89.3	100.0
Cc1no[n+]([O-])c1COc1cccc(/C=C2\N=C(c3ccccc3)OC2=O)c1	-0.6	-4.8	i	0.98	32.5	62.4	164.7
CC(C)n1c(=S)[nH]c2ccccc2c1=O	-1.6	1.3	i	1.08	34.9	78.4	102.2
CCc1ccc(NC(=O)/C(C#N)=C\c2ccc(OC)c(C(=O)O)c2)cc1	nt	-5.9	i	0.69	4.8	48.5	118.0
O=S(=O)(NCC1CCCO1)c1ccc(-c2ccc(Cl)cc2)cc1 (centres undefined)	nt	3.8	i	0.86	nt	nt	99.9
O=C(Nc1ccc2oc(-c3cccnc3)nc2c1)c1ccc2c(c1)OCCO2	nt	-6.3	i	0.66	-10.0	66.8	106.8
Clc1ccc(CN2CCCCCCC2)cc1Cl	0.7	10.5	i	1.03	-31.8	140.8	104.6
O=C(COC(=O)/C=C/c1ccc(Cl)cc1)NCCc1ccccc1	-1.1	-4.8	i	0.99	46.1	66.1	127.3
Cc1coc(C)c1C(=O)CC1(O)C(=O)N(C)c2ccc(Cl)cc21 (centres undefined)	nt	12.9	i	1.02	25.6	80.7	97.0
Cc1csc(NC(=O)c2cccc(Cn3nc(C)c(Br)c3C)c2)n1	-1.4	-3.9	i	0.73	-24.3	93.4	98.4
CS(=O)(=O)N(CC(=O)N/N=C/c1ccccc1C(=O)O)c1cccc(Cl)c1Cl	nt	nt	i	1.02	nt	nt	99.0
O=C1c2ccccc2C(=O)N1CN(C(=O)c1ccccc1[N+](=O)[O-])c1ccc(F)cc1	-0.7	1.8	i	1.13	-6.7	120.0	105.3

3 compounds out of the list, sorted by SMILES length, descending.
SMILES	GALR2 agonist	PKD1 inh	HSV augment	HSV augment primary fold	Insulin prom inh	Insulin prom inh cell count	RGS16-Gao
Cc1coc(C)c1C(=O)CC1(O)C(=O)N(C)c2ccc(Cl)cc21 (centres undefined)	nt	12.9	i	1.02	25.6	80.7	97.0
O=C(COC(=O)/C=C/c1ccc(Cl)cc1)NCCc1ccccc1	-1.1	-4.8	i	0.99	46.1	66.1	127.3
CC(C)n1c(=S)[nH]c2ccccc2c1=O	-1.6	1.3	i	1.08	34.9	78.4	102.2
